Measles inh = inhibitors of measles virus growth in infected cells. z-score (test concentration not listed). infected Vero cells, GFP fluorescence, 64 h; stronger effect = lower value. 33,000 tested, 0.1% active. AID 745;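 active = z-score under -3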;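 also: score is relative to mean and SD of the compound wells of a plate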
* hit, by the source's call. Only part of the results is shown; the hit share may differ from the screen's.

SMILES	Measles inh
O=c1c(Cc2cccc(Br)c2)c(O)nc(Nc2ccccc2)n1-c1ccccc1	-0.56
Cc1cccc(CSc2nc3c(c(=O)n2-c2ccc(Br)cc2)SCC3)c1	-0.61
CN(Cc1ccccc1)S(=O)(=O)c1ccc(C(=O)Nc2nc(-c3ccccn3)cs2)cc1	-0.16
CC1CCN(CCn2c(=S)[nH]c3cc4c(cc3c2=O)OCO4)CC1	0.84
CCOc1cc2[nH]c(=S)n(CCC(=O)NC3CCCC(C)C3C)c(=O)c2cc1OCC (configuration not stated)	-0.9
Cc1nn(-c2ccccc2)c(OC(=O)c2ccccc2[N+](=O)[O-])c1Sc1ccccc1[N+](=O)[O-]	-0.61
Clc1ccc(-c2ncnn2-c2cccc(Cl)c2)cc1	-0.25
COc1ccc(S(=O)(=O)NCCC(=O)NCC2CCCO2)cc1 (configuration not stated)	-0.65
Cc1cc(NS(=O)(=O)c2ccc([N+](=O)[O-])cc2)no1	-0.65
CC(=O)N1C(=O)C(=O)c2cc(C)c(Br)cc21	0.4
Cc1ccc(C)c(Cn2c(CN3CC(C)OC(C)C3)nc3c2c(=O)n(C)c(=O)n3C)c1 (configuration not stated)	0.39
O=C(Nc1ccc([N+](=O)[O-])cc1)C1C(c2ccccc2)=C1c1ccccc1	-0.83
COc1ccc2nc(NC(=O)NC34CC5CC(CC(C5)C3)C4)sc2c1	-0.34
Cn1c2ccccc2c2c(C(=O)NCCN3CCN(Cc4ccccc4)CC3)cn(C3CCCC3)c(=O)c21	-0.18
COc1ccc(C2=NN(S(C)(=O)=O)C(c3ccccc3OC)C2)cc1 (configuration not stated)	0.88
COC(=O)C1=C(C)Nc2nnnn2C1c1cc(OC)ccc1OC (configuration not stated)	-0.21
O=C(NCc1ccco1)C(Cc1ccccc1)NS(=O)(=O)c1ccc(Cl)cc1 (configuration not stated)	-0.3
COC(=O)c1c(N)n(-c2cc(C)cc(C)c2)c2nc3ccccc3nc12	-0.49
O=C(C1CCCN(S(=O)(=O)c2cccc3nsnc23)C1)N1CCc2ccccc21 (configuration not stated)	1.29
O=C1C2C3C=CC(C3)C2C(=O)N1c1ccc(NCCc2ccccc2F)c([N+](=O)[O-])c1 (configuration not stated)	1.17
O=C(CSCC(=O)c1ccc2c(c1)Cc1ccccc1-2)Nc1ccc2ccccc2c1	0.76
COc1cccc(CNC(=O)c2nnn(-c3ccccc3OC)c2N)c1	-0.19
CCOc1cccc(C2NC(=O)NC(C)=C2C(=O)OCC(Cl)(Cl)Cl)c1 (configuration not stated)	-0.05
CC1CCN(c2nc3c(c(=O)n(C)c(=O)n3C)n2CC(=O)c2ccccc2)CC1	-0.28
O=C1C=CC(=O)N1c1cc(Cl)ccc1Oc1ccccc1	-1.27
CN1C(=O)c2ccccc2C(C(=O)Nc2cccnc2)C1c1cn(C)c2ccccc12 (configuration not stated)	1.06
COc1ccc(OCC(=O)Nc2cc(C)on2)cc1	-0.61
CCn1cc(CNC(=O)C2C3CCC(C3)C2C(=O)O)cn1 (configuration not stated)	0.06
CCn1c(SCc2ccccc2Cl)nc2c1c(=O)[nH]c(=O)n2C	-1.12
CC(C)(C)NC(=O)c1cc2nc3c(c(C(F)(F)F)n2n1)CCc1ccccc1-3	0.51
OCCCc1nc2n(n1)C(c1cccs1)C=C(c1ccccc1)N2 (configuration not stated)	4.44
Cc1ccc(NC(=O)c2cc(S(=O)(=O)N3CCCC3)ccc2F)cc1F	0.26
O=C(O)CN1C(=O)COc2ccc(S(=O)(=O)N3CCOCC3)cc21	1.93
COc1cccc2cc(C(=O)Nc3ccc(F)cc3)c(=Nc3sc4c(c3C#N)CCCC4)oc12	-0.12
O=C(Nc1ncccn1)NC(C(F)(F)F)C(F)(F)F	0.05
COc1cccc(-n2c(=O)c3c4c(sc3n(Cc3ccc([N+](=O)[O-])cc3)c2=O)CCCC4)c1	-0.73
COc1cccc(Nc2nc3ccccc3nc2NS(=O)(=O)c2ccc(C)cc2)c1	0.93
CCC(=O)N1CCc2cc(S(=O)(=O)N3CCN(c4ccc(Cl)cc4)CC3)ccc21	0.13
CCCN1Cc2cccc(C(=O)Nc3ccc(OC)c(Cl)c3)c2C1=O	0.48
CCN1CCN(C(=O)CCn2c(=S)[nH]c3ccccc3c2=O)CC1	-0.42

16 entries out of the list, arranged by molar mass, falling:
SMILES	Measles inh
COc1cccc(-n2c(=O)c3c4c(sc3n(Cc3ccc([N+](=O)[O-])cc3)c2=O)CCCC4)c1	-0.73
CCC(=O)N1CCc2cc(S(=O)(=O)N3CCN(c4ccc(Cl)cc4)CC3)ccc21	0.13
COc1cccc(Nc2nc3ccccc3nc2NS(=O)(=O)c2ccc(C)cc2)c1	0.93
CN1C(=O)c2ccccc2C(C(=O)Nc2cccnc2)C1c1cn(C)c2ccccc12 (configuration not stated)	1.06
CCOc1cccc(C2NC(=O)NC(C)=C2C(=O)OCC(Cl)(Cl)Cl)c1 (configuration not stated)	-0.05
CC1CCN(c2nc3c(c(=O)n(C)c(=O)n3C)n2CC(=O)c2ccccc2)CC1	-0.28
CC(C)(C)NC(=O)c1cc2nc3c(c(C(F)(F)F)n2n1)CCc1ccccc1-3	0.51
CCCN1Cc2cccc(C(=O)Nc3ccc(OC)c(Cl)c3)c2C1=O	0.48
O=C(O)CN1C(=O)COc2ccc(S(=O)(=O)N3CCOCC3)cc21	1.93
COc1cccc(CNC(=O)c2nnn(-c3ccccc3OC)c2N)c1	-0.19
CCn1c(SCc2ccccc2Cl)nc2c1c(=O)[nH]c(=O)n2C	-1.12
CCN1CCN(C(=O)CCn2c(=S)[nH]c3ccccc3c2=O)CC1	-0.42
OCCCc1nc2n(n1)C(c1cccs1)C=C(c1ccccc1)N2 (configuration not stated)	4.44
CCn1cc(CNC(=O)C2C3CCC(C3)C2C(=O)O)cn1 (configuration not stated)	0.06
O=C(Nc1ncccn1)NC(C(F)(F)F)C(F)(F)F	0.05
COc1ccc(OCC(=O)Nc2cc(C)on2)cc1	-0.61

Next section:
SMILES	Measles inh
COc1ccccc1NC(=O)c1cc(S(=O)(=O)NC2CCCCCC2)ccc1F	-1.25
CCC(=O)Nc1c2c(nn1-c1ccc(C)cc1)CS(=O)(=O)C2	1.19
Cc1c(C)n(C(=O)CSc2nc3ccccc3o2)c2ccccc12	1.88
CCOC(=O)c1ccccc1NC(=O)Cc1c(C(=O)O)[nH]c2ccccc12	0.35
CS(=O)(=O)N1CCC(C(=O)NCCCN2CCCCC2)CC1	0.39
COc1cc(C2Nc3ccc4ncccc4c3C3=C2C(=O)CC(C)(C)C3)cc(OC)c1O (configuration not stated)	0.59
Cc1nc(-c2ccc(NS(=O)(=O)c3cc([N+](=O)[O-])ccc3C)cc2)cs1	-0.89
Cc1cc(Nc2ccc(Cl)cc2)c2ccc3ccccc3c2n1	-1.38
COc1ccc(-c2cn(-c3ccccc3)c(=O)[nH]2)cc1	1.35
O=C(CN1CCCN(S(=O)(=O)c2ccc(Br)cc2)CC1)Nc1cccc(C(F)(F)F)c1	0.63
COc1ccc(C2CC(=O)C3=C(C2)Nc2ccccc2NC3c2ccc(SC)cc2)cc1 (configuration not stated)	0.04
Cc1cccc(C)c1NC(=O)C1(N2CCc3ccccc32)CCCCC1	1.4
CCOc1ccc(N2CC(C(=O)Nc3c(C)cc(C)cc3C)CC2=O)cc1 (configuration not stated)	-0.63
O=C(Nc1ccccc1Cl)c1cnn2c1NC(c1ccco1)CC2C(F)(F)F (configuration not stated)	4.19
O=C(c1cccc(F)c1)N1CCN=C1SCc1ccc(Br)cc1	0.19
O=C(CCC1CCCCC1)Nc1c2c(nn1-c1cccc(Cl)c1)CS(=O)C2 (configuration not stated)	-1.7
CCOc1ccc(N2C(=O)C3C(c4ccc(N(C)C)cc4)NN(C(=O)c4cccc(Br)c4)C3C2=O)cc1 (configuration not stated)	0.62
Cc1ccc2c(c1)N(CCCC(=O)NCC1COc3ccccc3O1)C(=O)CO2 (configuration not stated)	-0.39
COc1ccc(OC)c(S(=O)(=O)N2CCN(C34CC5CC(CC(C5)C3)C4)CC2)c1	-0.44
CCOC(=O)C(C)Oc1ccc2c(C)c(Cc3ccccc3)c(=O)oc2c1C (configuration not stated)	-1.31
O=C(c1ccc2c(=O)n(Cc3ccco3)c(=S)[nH]c2c1)N1CCC(Cc2ccccc2)CC1	-0.14
O=C(CSc1nnc(-c2ccc3c(c2)OCCO3)o1)Nc1nc(-c2ccccc2)cs1	1.05
COc1ccc(CSc2cccc3cccnc23)cc1[N+](=O)[O-]	0.04
Cc1ccc(NS(=O)(=O)c2cccc3c2C(=O)c2ccccc2C3=O)cc1	-0.34
C=CCn1c(=S)[nH]c2cc(C(=O)Nc3ccc(OC)c(OC)c3)ccc2c1=O	-0.75
COc1ccc(N=Cc2cc(C)cc(I)c2O)cc1	0.96
COc1ccccc1OCCn1cc(C(=S)N2CCCC2)c2ccccc21	2.42
CCOc1ccc(NC(=O)CSc2cc(=O)n(C)c3cc(Cl)ccc23)cc1	0.69
Cc1cc(C)cc(NS(=O)(=O)c2ccc3[nH]cc(C(=O)NCCC4=CCCCC4)c(=O)c3c2)c1	-0.79
Cc1c(C(=O)N(C)C2CCCCC2)sc2ncn(Cc3cccc(F)c3)c(=O)c12	-0.36
CC1=C(C(=O)Nc2cc(C)ccn2)C(c2cccs2)C2=C(CC(C)(C)CC2=O)N1 (configuration not stated)	-1.4
CCOc1ccccc1N(C)C(=O)Cc1c(C(=O)O)[nH]c2ccccc12	-0.28
COc1ccc(C2C=C(c3ccc(OC(F)F)cc3)Nc3ncnn32)cc1 (configuration not stated)	-0.15
Cc1ccc(N2C(=O)CN(Cc3cccs3)C2=S)cc1Cl	2.18
COc1ccc(C2NC(=O)NC(C)=C2C(=O)OCCSc2ccccc2)cc1 (configuration not stated)	-0.81
COc1ccccc1COc1ccc2c(C)c(CCC(=O)O)c(=O)oc2c1	0.48
C=CCn1c(SCC(=O)N2CCc3ccccc32)nc2ccccc2c1=O	-0.77
Cc1cc(C)c2ccc(C=Cc3ccccc3[N+](=O)[O-])nc2c1O	-0.41
Clc1ccc(-c2csc3c4ncnc-4ncn23)cc1	-0.51
CCOC(=O)Cc1ccc(N(Cc2ccccc2Cl)S(=O)(=O)c2ccc(Br)cc2)cc1	-0.56
COc1ccc(C(=O)Oc2ccc(Cl)c3cccnc23)cc1OC	-0.32
O=C(CN(Cc1ccc(Br)cc1)S(=O)(=O)c1ccccc1)Nc1ccccc1F	-0.49
Cc1ccc(S(=O)(=O)Nc2cc(C(C(=O)OC(C)C)C(=O)C(F)(F)F)c(O)c3ccccc23)cc1 (configuration not stated)	0.61
O=C(Nc1nc(-c2cc([N+](=O)[O-])cs2)cs1)c1ccc(S(=O)(=O)N2CCCC2)cc1	-0.24
COc1cc(-c2nc3cnccn3c2NC2CCCC2)ccc1O	-0.65
Cc1ccccc1C(=O)Nc1cccc(Oc2ccc3c(c2)C(=O)N(c2ccccc2)C3=O)c1	-0.29
COc1cc(C(=O)Nc2ccc(S(=O)(=O)N3CCCCC3)cc2)cc(OC)c1OC	-0.17
CCOc1ccc(C=Nc2ccccc2Sc2c(C)n[nH]c2C)cc1	-0.28
Cc1ccc(S(=O)(=O)NC(=NC(C)C(=O)O)c2ccccc2)cc1 (configuration not stated)	-0.05
COc1cccc(Nc2ccc(C(=O)O)cc2N)c1	-0.08

The closing 2 records of the section before come first, to join the parts.
SMILES	Measles inh
Cc1ccc(S(=O)(=O)NC(=NC(C)C(=O)O)c2ccccc2)cc1 (configuration not stated)	-0.05
COc1cccc(Nc2ccc(C(=O)O)cc2N)c1	-0.08
COc1ccc2nc(NC(=O)COC(=O)CN3C(=O)c4ccccc4C3=O)sc2c1	-0.93
COc1cc(-c2nnc(SCC(=O)N3CCCc4ccccc43)o2)cc(OC)c1OC	-1.31
CC1(C)CC2(CC(C)(C(=O)CSc3n[nH]c(-c4ccccc4Cl)n3)OC2=O)C(=O)O1 (configuration not stated)	-0.86
CCCCNC(=O)c1c(C)cc(Cl)nc1Cl	0.59
O=C(Nc1nc2ccccc2s1)C1c2ccccc2C(=O)N2CCc3ccccc3C12 (configuration not stated)	-0.99
CCCCOc1cccc(C(=O)Nc2ccc3oc(-c4ccncc4)nc3c2)c1	-1.13
CCC(C)(C(=O)NC1CCCC1)N(Cc1ccco1)C(=O)c1ccc2c(c1)OCO2 (configuration not stated)	-0.15
CN(C)CCC(=O)NCC1OCCc2ccccc21 (configuration not stated)	1.51
Cc1ccc(NC(=O)CCCCC(=O)Nc2ccc(C)c(Br)c2)cc1Br	1.16
Cc1ccc2nc(N=C(NC(=O)c3ccccc3)NC(=O)c3ccccc3)nc(C)c2c1	-0.48
OCCCNc1ncnc2c1cnn2-c1ccccc1	0.75
CC(C)(Oc1ccc(Cl)cc1)C(=O)Nc1c(-c2ccc(F)cc2)nc2ccccn12	0.54
COc1cc(C2Nc3ccccc3NC3=C2C(=O)CC(c2ccccc2)C3)ccc1O (configuration not stated)	0.63
CC(O)CNc1ncnc2c1c(-c1ccccc1)cn2-c1ccccc1 (configuration not stated)	0.58
CCCn1c(=N)c(C(=O)OCC)cc2c(=O)n3cccc(C)c3nc21	0.9
COc1ccc(-n2cnc3cc(NC(=O)c4ccc(C)cc4)ccc32)cc1	0.79
Cc1ccc2nc(-c3ccc(NC(=O)CN4CCN(S(=O)(=O)c5ccc(C(C)C)cc5)CC4)cc3)sc2c1	0.38
CCOC(=O)C1=C(C)NC2=C(C(=O)C(C(=O)OC)C(C)C2)C1c1ccc2c(c1)c1ccccc1n2CC (configuration not stated)	-0.85
CCOc1sc2nc(C)n(CC(=O)N3CCC(C)CC3)c(=O)c2c1C	-0.98
Cc1ccsc1C1Nc2ccc3ccccc3c2C2=C1C(=O)CC(C)(C)C2 (configuration not stated)	-1.31
COc1ccc2nc(N3CCCC(C(=O)NC4CC4)C3)sc2c1 (configuration not stated)	1.16
COc1ccc(S(=O)(=O)CCC(=O)Nc2ccc(C)cn2)cc1	-0.05
CC(c1ccccn1)N(C(=O)Nc1ccc(Cl)cc1)C1CCCCC1 (configuration not stated)	-0.32
CCOc1ccc2nc(NC(=O)c3cc(OC)c(OC)c(OC)c3)sc2c1	0.52
Cc1ccc(C)c(Cc2cc([N+](=O)[O-])ccc2C)c1	-1.25
O=C1C2C3C=CC(C3)C2C(=O)N1c1ccc(N2CCN(CCO)CC2)c([N+](=O)[O-])c1 (configuration not stated)	-0.7
O=C(Nc1ccc(C23CC4CC(CC(C4)C2)C3)cc1)c1ccc(Br)cc1	0.14
CC1CCCC(NC(=O)Cn2nc(-c3ccccc3)ccc2=O)C1C (configuration not stated)	-0.16
CC(=O)Nc1ccc(S(=O)(=O)NC(CC(=O)N2CCOCC2)C(C)C)cc1 (configuration not stated)	-0.12

Screening results from PubChem BioAssay.
